Rango-impB inh: qHTS Assay for Inhibitors of Rango (Ran-regulated importin-beta cargo) - Importin beta complex formation. AID 540263, 2011. hit rate 0.031% among 340,000. Importin subunit beta-1 (Homo sapiens), Q14974. Potency, µM (doses to about 92.2 µM), without a hit: at the top dose inhibition of complex formation. Rango CFP/YFP FRET sensor + importin beta, 45 min; active = rising FRET ratio curve, often small or poorly fitted; inconclusive = mostly compound fluorescence or quenching in the first reads; inactive = flat curves in all reads;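 further: potency means the concentration at half of the fitted maximal effect; 0% = DMSO wells and 100% = buffer wells lacking importin beta; nearly all actives have a fitted effect of over 15% in size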
Target sequence (Q14974 whole entry, looked up): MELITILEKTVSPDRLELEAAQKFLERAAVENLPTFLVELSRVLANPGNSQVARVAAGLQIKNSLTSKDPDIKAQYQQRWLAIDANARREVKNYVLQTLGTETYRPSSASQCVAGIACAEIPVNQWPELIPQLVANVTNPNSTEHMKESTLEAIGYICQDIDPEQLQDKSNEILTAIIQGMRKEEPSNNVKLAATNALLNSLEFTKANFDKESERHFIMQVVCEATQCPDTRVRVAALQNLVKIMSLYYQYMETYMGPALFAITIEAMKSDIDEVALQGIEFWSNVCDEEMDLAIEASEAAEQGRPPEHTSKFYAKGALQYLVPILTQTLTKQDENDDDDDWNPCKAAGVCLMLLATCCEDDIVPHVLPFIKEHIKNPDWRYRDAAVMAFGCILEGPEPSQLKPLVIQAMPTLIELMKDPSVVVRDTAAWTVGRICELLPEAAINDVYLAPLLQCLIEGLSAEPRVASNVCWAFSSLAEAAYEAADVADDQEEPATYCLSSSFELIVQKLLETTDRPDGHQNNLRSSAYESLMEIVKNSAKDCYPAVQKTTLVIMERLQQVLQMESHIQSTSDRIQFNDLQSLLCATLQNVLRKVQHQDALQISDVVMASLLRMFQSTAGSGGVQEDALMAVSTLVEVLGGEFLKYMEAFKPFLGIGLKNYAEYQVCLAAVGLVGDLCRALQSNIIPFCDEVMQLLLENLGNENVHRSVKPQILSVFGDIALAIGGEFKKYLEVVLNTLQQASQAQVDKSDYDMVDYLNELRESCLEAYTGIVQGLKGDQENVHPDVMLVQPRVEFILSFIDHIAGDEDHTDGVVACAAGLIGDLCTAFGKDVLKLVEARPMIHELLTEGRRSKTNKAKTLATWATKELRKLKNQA
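FRET biosensor (snurportin 1 IBB flanked by EYFP and cerulean), 50 nM, with compound 5 min, then 0.125 microM importin beta in PBS, 1 mM DTT, 0.02% Tween-20, 0.1% BSA. CFP/YFP ratio read after 45 min at room temperature; pre-read flags interference.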
Rango release inh: qHTS Assay for Inhibitors of RanGTP induced Rango (Ran-regulated importin-beta cargo) - Importin beta complex dissociation; Snurportin-1 (Homo sapiens) + GTP-binding nuclear protein Ran (Homo sapiens) + Importin …; Biochemical FRET Rango-importin beta, RanGTP-induced dissociation; Potency, µM (highest dose often 46.1 µM), for inactives: at the highest dose activity change, negative = inhibition; hit rate 0.071% among 340,000; AID 540253, 2011; active means falling FRET ratio curve, often poorly fitted, with flat reads before Ran was added; inconclusive means other falling curves, or compound fluorescence or quenching; inactive means flat or rising ratio curve;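 further: potency means the concentration at half of the fitted maximal effect; % of control where 0% means no effect; nearly all actives have a fitted effect of over 45% in size; -100% = wells without RanGTP and RCC1; the record marks most hits as doubtful in a second field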
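Rango/importin beta premix (0.1/0.25 uM final), PBS + 1 mM DTT + 0.02% Tween-20 + 0.1% BSA; cpd 5 min RT; FRET pre-read; + RanGTP-RCC1 (0.6 uM Ran, 2 mM GTP, 0.2 uM RCC1); 45 min RT; FRET post-read, ex 430, em 486/530 nm.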
miR-21 reporter: qHTS Assay for Modulators of miRNAs and/orActivators of miR-21; HeLa miR-21 FLuc reporter, luciferase, 48 h; Potency, µM (series often up to 38.3 µM), for the others: top-dose reporter change, positive = more light; 340,000 tested, under 10 active; active = well fitted rising curve with a large enough effect; inconclusive = small, poorly fitted or top-dose-only effect; inactive = no such curve, though single readings can be large or run the other way;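 further: % of control where 0% means no effect; miR-21 action dims this reporter so a rising signal means less miR-21 action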
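Luminescence from a firefly luciferase reporter carrying a miR-21 binding site downstream, stably expressed under a CMV promoter in HeLa cells that make miR-21 endogenously, reports miRNA modulation after 48 h compound exposure up to approximately 40uM final.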
GLA inh pH 4.5: qHTS Assay for Inhibitors of Human alpha-Galactosidase at pH 4.5. purified enzyme, 4-MU-alpha-Gal fluorescence, pH 4.5. activity change, negative = inhibition, % at 105 µM. 230,000 tested, under 10 active. AID 1467, 2008; inconclusive = small, poorly fitted or top-dose-only inhibition, or a rising curve; inactive = flat fitted curve, though single readings scatter; no compound was filed as active;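 further: 0% = full activity with enzyme and -100% = basal without enzyme; dose as in the result columns while the protocol names 77 µM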
* hit, by the source's call; u = inconclusive; x = not tested or not shown; & = joins results of further samples. Some of the compounds tested. The share of hits here may be higher or lower than overall.

Sample of the layout:
Rango-impB inh | Rango release inh | miR-21 reporter | GLA inh pH 4.5 | molecule
-2.6% | -14% | -6% | -1 | O=C1NC2(CCCCC2)Cc2ccccc21
u | u | -8% | -3 | Cc1ccc(C2C=C(c3ccc4c(c3)OCO4)Nc3ncnn32)cc1 (configuration not stated)
-6.2% | 2% | -3% | 3 | O=C(CCN1c2ccccc2Sc2ccccc21)OCC(=O)N1CCN(C(=O)c2ccco2)CC1

The listing, repeating the preview:
Rango-impB inh | Rango release inh | miR-21 reporter | GLA inh pH 4.5 | molecule
-2.6% | -14% | -6% | -1 | O=C1NC2(CCCCC2)Cc2ccccc21
u | u | -8% | -3 | Cc1ccc(C2C=C(c3ccc4c(c3)OCO4)Nc3ncnn32)cc1 (configuration not stated)
-6.2% | 2% | -3% | 3 | O=C(CCN1c2ccccc2Sc2ccccc21)OCC(=O)N1CCN(C(=O)c2ccco2)CC1
0.4% | 23% | 8% | -10 | O=C(COc1ccc(Br)cc1F)NC1CCN(Cc2ccccc2)CC1
u | u | -3% | x | COc1cccc(C(=O)Nc2ccc(NC(=O)c3cc4ccccc4o3)c(OC)c2)c1
-0.3% | 0% | x | x | COc1ccc(C(=O)NCCC2=CCCCC2)cc1S(=O)(=O)N1CCOCC1
-3.5% | 20% | x | x | C[C@@H](c1ccccc1)N1Cc2ccccc2Oc2cc(Br)ccc2S1(=O)=O
1.1% | 19% | x | x | Cc1ccc(S(=O)(=O)NCCC(=O)N2CCN(S(=O)(=O)c3ccccc3)CC2)cc1C
3.8% | 8% | -8% | -6 | CC(CC(=O)Nc1nc2ccccc2[nH]1)n1ccnc1 (configuration not stated)
u | -12% | 4% | -4 | COCc1c(N)c(C)nc(Cl)c1C#N
0.3% | 3% | -10% | 3 | NC(=O)c1ccccc1NS(=O)(=O)c1ccccc1
-1.7% | 4% | -11% | 8 | CCOCCN1CCN(c2c3c(nc4cc(-c5ccc(F)cc5)nn24)CCC3)CC1
-4.0% | -3% | -4% | -8 | CN(C(=O)COC(=O)c1cc([N+](=O)[O-])ccc1N1CCCC1)C1CCS(=O)(=O)C1 (configuration not stated)
-1.7% | 2% | -2% | -3 | CC(C)CNC(=S)Nc1ccc(Oc2ccccc2)cc1
u | 3% | -1% | -7&5 | O=C(/C=C/c1ccc(O)c(O)c1)OC(Cc1ccc(O)c(O)c1)C(=O)O (configuration not stated)
6.6% | 1% | -12% | 8 | CC(C)c1ccc(O)c(NC(=O)c2ncn[nH]2)c1
u | 11% | 27% | 3 | CCNC(=S)Nc1ccc(Cl)c(C(F)(F)F)c1
-0.7% | 22% | -5% | 9 | COC(=O)CNC(=O)c1ccccc1C
0.7% | -7% | 1% | -5 | CCCCN(CCCC)C(=O)c1cc2ccccc2c(=O)o1
-2.7% | -1% | 1% | x | O=C(CN1C(=O)C2CCCCC2C1=O)Nc1ccccc1C(=O)O (configuration not stated)
-4.8% | -6% | -5% | -2 | CCOC(=O)c1nnn(-c2nonc2N)c1CSc1ccccn1
3.4% | -7% | x | x | COc1cc(C(=O)OCCc2cc3ccccc3c(=O)o2)cc(OC)c1OC
-3.1% | -4% | 0% | x | Cc1ccc(N(CC(=O)NC2CCCCC2)S(=O)(=O)c2cccs2)cc1
-1.0% | 0% | -5% | 0 | CCN(CC)S(=O)(=O)c1ccc(C)c(NC(=O)CSc2ncc(C(F)(F)F)cc2Cl)c1
-0.5% | 6% | 0% | -4 | Cc1nc(N2CCCCC2C)c2c(C)c(C(=O)Nc3cccc(C(F)(F)F)c3)sc2n1 (configuration not stated)
-3.1% | 13% | -1% | -9 | CCn1c2ccccc2c2cc(CN3CCN(S(C)(=O)=O)CC3)ccc21
-0.6% | 10% | -2% | x | Cc1ccc(Cl)cc1NS(=O)(=O)c1ccc2c(c1)NC(=O)C(C)C(=O)N2 (configuration not stated)
2.9% | -9% | x | x | COCC(C)n1c(SCC(=O)Nc2c(C)n(C)n(-c3ccccc3)c2=O)nc2ccccc2c1=O (configuration not stated)
-2.4% | -2% | -34% | 0 | CCOc1ccccc1NC(=O)/C=C/c1ccccc1[N+](=O)[O-]
u | -13% | x | x | Cc1ccc(S(=O)(=O)NCCC(=O)OCC(=O)Nc2cccc(Cl)c2)cc1
-0.4% | 2% | -5% | x | Brc1ccccc1OCCN1CCOCC1
-3.0% | -11% | -5% | x | COc1ccc(C(=O)N/C(=C/c2ccco2)C(=O)N2CCCCCC2)cc1
-0.1% | 4% | -1% | -14 | CCCCn1c(-c2ccco2)nc2oc3ccccc3c(=O)c2c1=O
0.4% | -18% | x | x | Cc1cccc(NC(=O)COC(=O)CCc2c[nH]c3ccccc23)c1
x | x | -15% | 3 | COC(=O)Sc1nnc(-c2ccc(Br)cc2)o1
-1.1% | -1% | -8% | 3 | CN(C)C(CNC(=O)CCCOc1ccccc1)c1ccco1 (configuration not stated)
-1.6% | 5% | 1% | -1 | CC(C)C(NC(=O)Cc1ccccc1[N+](=O)[O-])C(C)C
-0.1% | -3% | -3% | 9 | CCOC(=O)Cc1[nH]nc2c1C(c1ccsc1)C(C#N)=C(N)O2 (configuration not stated)
-0.1% | -6% | 16% | -7 | COc1ccc(CCNc2nc(-c3ccc(NC(C)=O)cc3)cs2)cc1OC
1.1% | 1% | -48% | -30 | O=C(COc1ccc2c(c1)OCO2)Nc1ccccc1F
-0.8% | u | -2% | -13 | CCOC(=O)N1CCN(C(=S)NC(=O)c2ccc(F)c(F)c2)CC1
-2.7% | 1% | -10% | x | Cc1c(C)n(C)c2ccc(C(=O)NCCCN3CCOCC3)cc12
0.2% | -8% | x | x | CN(C)c1cccc(C(=O)OCCCC(=O)c2ccc(F)cc2)c1
4.1% | -11% | -26% | 0 | C/C(N)=C(/C#N)C(=O)COC(=O)c1ccccc1Cc1ccccc1
-0.6% | -14% | -12% | 3 | Cc1ccc(S(=O)(=O)N2CCCCC2)cc1NC(=O)CSc1ccc2c(c1)OCCO2
-2.5% | -7% | 8% | 8 | Cc1cc(C)cc(N2C(=O)CC(Sc3ncn[nH]3)C2=O)c1 (configuration not stated)
3.3% | 29% | x | x | Cc1noc(C)c1COc1cccc(C(=O)N(C)Cc2cccs2)c1
-3.4% | -2% | 1% | -3 | O=C1C(Nc2ccccc2)=C(NS(=O)(=O)c2ccccc2)C(=O)c2ccccc21
6.4% | 37% | 0%&-1% | x | O=C1CC(=O)Nc2cc(S(=O)(=O)Nc3ccc(F)cc3Cl)ccc2N1
-0.2% | 9% | x | x | COc1ccc(S(=O)(=O)N2CCOCC2)cc1NC(=O)C1CCN(S(=O)(=O)c2ccc(Cl)cc2)CC1

3 entries from above, sorted by the value under GLA inh pH 4.5, low to high:
Rango-impB inh | Rango release inh | miR-21 reporter | GLA inh pH 4.5 | molecule
-3.4% | -2% | 1% | -3 | O=C1C(Nc2ccccc2)=C(NS(=O)(=O)c2ccccc2)C(=O)c2ccccc21
-1.6% | 5% | 1% | -1 | CC(C)C(NC(=O)Cc1ccccc1[N+](=O)[O-])C(C)C
u | 11% | 27% | 3 | CCNC(=S)Nc1ccc(Cl)c(C(F)(F)F)c1

Next part
Rango-impB inh | Rango release inh | miR-21 reporter | GLA inh pH 4.5 | molecule
0.7% | -6% | -3% | x | CCOc1ccc(Br)cc1CNCc1cccnc1
1.7% | 0% | 4% | 8 | CCOc1ccc(NC(=O)NCC2CCN(c3ccc(OC)cc3)C2)cc1 (configuration not stated)
2.7% | 33% | -2% | x | CCOc1ccccc1N1CC(C(=O)NCCOc2ccccc2OC)CC1=O (configuration not stated)
0.5% | -5% | 0% | 0 | COCCNC(=O)c1cn(C(C)c2ccccc2F)nn1 (configuration not stated)
2.8% | -5% | -3% | 3 | COc1ccc(N(C(C)C(=O)Nc2cccnc2)S(C)(=O)=O)cc1 (configuration not stated)
0.3% | -9% | 22% | x | CCOC(=O)C1CCCN(C(=O)c2ccc3c(=O)n(Cc4ccccc4OC)c(=S)[nH]c3c2)C1 (configuration not stated)
-0.2% | -4% | x | x | Cc1ccn2c(=O)c(NC(=O)c3ccc(Br)o3)c(C)nc2c1
0.1% | -12% | -6% | -4 | Cc1ccc(SCc2cc(=O)[nH]c(Nc3nc(C)c4ccc(C)cc4n3)n2)cc1
8.7% | -1% | -5% | x | O=C(N/N=C/c1cc2c(cc1[N+](=O)[O-])OCO2)c1ccc2c(c1)OCO2
1.4% | -10% | x | x | COc1ccccc1-c1sc2ccccc2c1-c1ccc(OCCN2CCOCC2)cc1
0.0% | 2% | x | x | CCOc1ccc(S(=O)(=O)N2CCCCC2)cc1NC(=O)CN1C(=O)NC(C)(C2CC2)C1=O (configuration not stated)
-3.2% | 4% | -7% | 6 | CC(C)CNC(=O)CCCc1c[nH]c2ccccc12
1.3% | 8% | 12% | -26 | CCCCNC(=S)Nc1ccc(SC(F)F)cc1
2.5% | 39% | -3% | 1 | CC(C)OCC(O)CN (configuration not stated)
u | u | 0% | x | Cc1oc2cc3oc(=O)c(CC(=O)NCC(=O)N[C@@H](C(=O)O)c4ccccc4)c(C)c3cc2c1C
-0.6% | 11% | -23% | x | CC1(C)Cc2c(cnn2-c2ccc(F)cc2)C(NC(=O)c2ccc(=O)oc2)C1 (configuration not stated)
-1.8% | -1% | -24% | -5 | COc1ccc(-c2noc(CN(C)C3CCOCC3)n2)cc1
0.9% | 4% | 27% | 4 | Oc1ccc(Nc2nc(N3CCCC3)c3ccccc3n2)cc1
0.6% | -6% | -2% | -5 | CSCCC(NC(=O)c1cccc(C)c1)C(=O)O (configuration not stated)
-0.3% | -16% | 0% | x | COc1ccccc1NC(=O)c1cc2c(CO)cnc(C)c2oc1=Nc1cc(OC)c(OC)c(OC)c1
-2.0% | 7% | x | x | O=C(NCC(c1ccc(F)cc1)N1CCOCC1)c1ccco1 (configuration not stated)
5.0% | 8% | 17% | -9 | Cc1nc2c3cc(F)ccc3n(CCN3CCCCC3)c2s1
6.2% | 19% | x | x | O=S(c1ccccc1O)S(=O)c1ccccc1O (configuration not stated)
0.2% | 4% | 0% | -6 | O=C(O)C1(P(=O)(c2ccccc2)c2ccccc2)CCCC1
-0.4% | -15% | x | x | Cc1ccc(Cl)c(OCC(=O)Nc2ccccc2N2CCCCC2)c1
0.0% | 14% | -7% | 0 | CCCOC(=O)c1c(NC(=O)CCCn2nc([N+](=O)[O-])cc2C)sc(C(=O)OC)c1C
-1.8% | -8% | 2%&26% | x | CCOc1ccccc1CNC(=O)C1CCCN(c2nnc(C)c3c(C)n(-c4ccccc4)nc23)C1 (configuration not stated)
5.6% | 2% | -11% | -4 | CCN(CC)CC#CCC(O)(c1ccccc1)C1CCCC1 (configuration not stated)
x | x | -1% | 8 | Cc1nnc2ccc(-c3ccc(NC(=O)c4ccc(Cl)nc4)cc3)nn12
u | -14% | 11% | -13 | CCn1cc(CN2CCc3c([nH]c4ccccc34)C2c2cccc(O)c2)c(C)n1 (configuration not stated)
-0.9% | -19% | 2% | -10 | COc1ccccc1N1CCN(C(=O)CN(CCc2ccccc2)S(C)(=O)=O)CC1
3.6% | 13% | -33% | x | Cc1ccc2nc(Nc3ccccc3)cc(C)c2c1
3.3% | -11% | 29% | 5 | Cc1ccc(NC(=S)Nc2ccc(C(C)C)cc2)cc1S(=O)(=O)N1CCCCCC1
-3.8% | 3% | -1% | -1 | Cc1cc(C)n(-c2ccc(Cl)c(C(=O)OCC(=O)N3CCCCC3C)n2)n1 (configuration not stated)
-0.1% | 1% | 0% | -7 | O=C(N/N=C1/SCC(=O)N1Cc1ccco1)c1ccccc1F
0.1% | -1% | -1% | 5 | CCCCN1CN(Cc2ccccc2)CNC1=S
-1.5% | 2% | -12% | x | N#CCC(=O)N/N=C\c1ccccc1OC/C=C/c1ccccc1
